Compound activity as filed in PubChem.
Calb biofilm kill – mixtures killing C. albicans biofilm. C. albicans biofilm persisters + clotrimazole, fluorescence viability; primary screen in compound mixtures of four per well. inhibition, % at 7.6 µM. hit rate 0.02% among 120,000;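 active means inhibition above 30.3% in the primary screen of four-compound pools, then above 30% when the compound was retested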;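 further: compounds exposed to preformed 24 h biofilms for 48 h; the number belongs to the whole pool; some results filed as inactive read as strong as hits; inactives centre near 12; 0% = biofilm with clotrimazole alone and 100% = kill control; retested singly at about 60 µM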
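Probe or stimulus – Clotrimazole 50 µg/mL co-treatment · System – C. albicans biofilms · Schedule – 24 h biofilm formation, then 48 h compound exposure, 37 °C · Evaluation – percent inhibition of biofilm viability · Technique – 2-h Alamar Blue fluorescence, 535/590 nm excitation/emission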
The depositor's hits bear a star. An excerpt (hit frequency here may not be typical).

nr	SMILES	Calb biofilm kill
1	COc1ccc(OC)c(NC(=S)NCc2cccs2)c1	6
2	CCCCNCc1cc(OC)c(OCC(N)=O)cc1Br	12
3	Cc1ccc([N+](=O)[O-])cc1S(=O)(=O)n1ccnc1C	-3
4	Cc1ccc(OCCCn2c(=O)oc3ccccc32)cc1	21
5	Cn1c(=O)c2c(ncn2CC(=O)OCC(=O)Nc2cc(Cl)ccc2Cl)n(C)c1=O	24
6	COc1ccc(C(=O)Nc2cccc(-c3ccc4nncn4n3)c2)cc1	16
7	CCNc1ccc(S(=O)(=O)N(C)C)cc1NCC(=O)Nc1c(F)cccc1F	8
8	COc1cc(C2=Nc3ccc(Br)cc3C(c3ccccc3)N2CC(=O)NN)cc(OC)c1OC (stereo not given)	12
9	CN(CC(=O)Nc1ccc(N2CCOCC2)cc1)CC(=O)Nc1ccccc1[N+](=O)[O-]	13
10	CCOc1ccc2nc(NC(=O)C3CCCO3)sc2c1 (stereo not given)	10
11	Cc1ccc(OCCC(=O)Nc2ccc(F)c(Cl)c2)cc1	24
12	COc1cc(C(=S)NCc2ccccc2)cc(Br)c1O	-4
13	Cc1ccc(C(=O)c2ccccc2C(=O)OCC(=O)NC(C)(C)C)cc1	-3
14	Cn1cccc1CNC(=S)Nc1cc(F)cc(F)c1	18
15	Cc1ccccc1Nc1nc(N)nc(COC(=O)c2cccc(S(=O)(=O)NCc3ccccc3)c2)n1	3
16	CC1SC(c2ccc(Cl)cc2)NC1=O (stereo not given)	11
17	C[C@@H](NC(=O)OC(C)(C)C)c1nnc(S(=O)(=O)Cc2ccccc2)o1	26
18	CCN(C(=O)CSc1nnc(Cn2nnc3ccccc32)o1)c1nc(C)cs1	5
19	O=C(c1ccc(NC(=S)NCc2ccco2)cc1)N1CCCCC1	13
20	CC(=O)N1N=C(c2ccc(Br)cc2)OC1(C)CC(=O)Nc1ccccc1 (stereo not given)	11
21	COc1cc(C(=O)c2cocc2C(=O)c2ccc3c(c2)OCO3)cc(OC)c1OC	32
22	Cc1cc(Oc2cnn(C(C)(C)C)c(=O)c2Cl)cc(C(C)C)c1	16
23	CCOC(=O)NN1C(=O)c2ccccc2NC1c1ccc(N(C)C)cc1 (stereo not given)	13
24	COc1cccc(CC2(CO)CCCN(Cc3cn[nH]c3-c3ccc(F)cc3)C2)c1 (stereo not given)	2
25	O=S(=O)(c1ccc(F)cc1)N1CCCN(c2nccc(C(F)(F)F)n2)CC1	19
26	COc1cccc(NC(=S)N(CCN(C)C)C(C)c2ccco2)c1 (stereo not given)	12
27	O=C(c1ccc([N+](=O)[O-])cc1)N1CCN(C(=O)c2cccs2)CC1	13
28	CC(C)c1ccc(N(CC(=O)NCc2ccc(F)cc2)C(=O)c2csnn2)cc1	4
29	O=C(N/N=C/c1ccco1)C1COc2ccccc2O1 (stereo not given)	19
30	CC(C)CC(COCc1ccc(Cl)cc1)N1CCN(C(=O)c2cccc(C(F)(F)F)c2)CCC1=O (stereo not given)	0

Rewritten field by field: part of the list above.
25) O=S(=O)(c1ccc(F)cc1)N1CCCN(c2nccc(C(F)(F)F)n2)CC1
  Calb biofilm kill: 19
26) COc1cccc(NC(=S)N(CCN(C)C)C(C)c2ccco2)c1 (stereo not given)
  Calb biofilm kill: 12
27) O=C(c1ccc([N+](=O)[O-])cc1)N1CCN(C(=O)c2cccs2)CC1
  Calb biofilm kill: 13
28) CC(C)c1ccc(N(CC(=O)NCc2ccc(F)cc2)C(=O)c2csnn2)cc1
  Calb biofilm kill: 4

Given as labelled records: two of the compounds above.
[29] O=C(N/N=C/c1ccco1)C1COc2ccccc2O1 (stereo not given)
  Calb biofilm kill = 19

[30] CC(C)CC(COCc1ccc(Cl)cc1)N1CCN(C(=O)c2cccc(C(F)(F)F)c2)CCC1=O (stereo not given)
  Calb biofilm kill = 0

Following part
nr	SMILES	Calb biofilm kill
31	O=C(OCC(=O)N1CCN(c2ccccc2)CC1)c1ccc[n+]([O-])c1	10
32	Cc1cc(N=Nc2ccccc2)c(NCC(O)C(O)C(O)CO)cc1C (stereo not given)	11
33	Cc1cc(=O)n(C)c(=O)n1CCCCOc1ccc([N+](=O)[O-])cc1	31
34	Cc1ccc(C2=NN=C(NC(=O)CSc3nnc4c5ccccc5n(C)c4n3)SC2)cc1	12
35	Fc1ccc2nc(Nc3nc4c(F)cccc4s3)sc2c1	8
36	C/C(=N\NC(=O)c1ccc(CSc2nc(C)cc(C)n2)cc1)c1ccco1	11
37	CCOC(=O)c1sc(NNC(=O)c2ccc(C)cc2)nc1C	13
38	O=C(Nc1cccc(/C=C/c2nc3ccccc3c(=O)[nH]2)c1)c1ccccc1Cl	10
39	O=C(NCCCn1ccnc1)c1cccc(S(=O)(=O)NCc2ccccc2)c1	9
40	Cc1c(C(=O)OC/C(O)=C(\C#N)c2nc3ccccc3[nH]2)oc2ccc(Br)cc12	18

Reprinted, entries 30–33
nr	SMILES	Calb biofilm kill
30	CC(C)CC(COCc1ccc(Cl)cc1)N1CCN(C(=O)c2cccc(C(F)(F)F)c2)CCC1=O (stereo not given)	0
31	O=C(OCC(=O)N1CCN(c2ccccc2)CC1)c1ccc[n+]([O-])c1	10
32	Cc1cc(N=Nc2ccccc2)c(NCC(O)C(O)C(O)CO)cc1C (stereo not given)	11
33	Cc1cc(=O)n(C)c(=O)n1CCCCOc1ccc([N+](=O)[O-])cc1	31

Carrying on.
nr	SMILES	Calb biofilm kill
41	O=C(Nc1nnc(CSCc2ccccc2F)s1)c1cccc([N+](=O)[O-])c1	-10
42	O=C(C1=C[C@@H](c2ccc(C(F)(F)F)cc2)C[C@@H](OCc2ccc(CO)cc2)O1)N1CCN(Cc2ccc3c(c2)OCO3)CC1	17
43	Cc1cc(C)nc(N2CCCC(C(=O)NNC(=O)c3ccncc3)C2)n1 (stereo not given)	6
44	Cc1ccc2c(c1)C(=C(C#N)C#N)C(=O)N2CCN1CCCCC1	9
45	Cn1c(SCc2nc(-c3ccccc3)no2)nnc1-c1cccs1	-11
46	O=Nc1c(O)[nH]c2c(F)cccc12	9
47	O=C(O)/C=C/C(=O)c1ccc(O)cc1	11
48	Cc1cc(=O)[nH]c(-c2ccc(Cl)cc2)n1	12
49	NC(=O)C1CCN(CC(=O)Nc2cccnc2Cl)CC1	11
50	CCN(CC)C(=O)C(=O)c1cn(CCOc2ccccc2)c2ccccc12	10
51	CCOC(=O)c1ccc(NC(=O)C23CCC(C)(C(=O)O2)C3(C)C)cc1 (stereo not given)	6
52	O=C(c1ccc(-c2ccccc2)c(F)c1)C1CCCN(CCCn2cccn2)C1 (stereo not given)	3
53	Cc1cc(N=Nc2ccc(Cl)cc2)cc(CN2CCCC2)c1O	4
54	C=CCSc1nc2c(c(C3CC=CCC3)c1C#N)CCC2 (stereo not given)	-11
55	CC1CCN(C2(O)C(=O)Nc3ccc(Br)cc32)CC1 (stereo not given)	10
56	Cc1ccc(S(=O)(=O)N2c3ccccc3-c3c(ssc3=S)C2(C)C)cc1	11
57	CCc1ccc2oc(-c3ccc(OC)cc3)cc(=Nc3c(C)n(C)n(-c4ccccc4)c3=O)c2c1	20
58	Cn1c(=O)c2c(nc(Oc3ccc4c(c3)OCO4)n2Cc2ccc(Br)cc2)n(C)c1=O	8
59	CN1/C(=C\C(=S)NC(=O)c2cccc(Br)c2)C(C)(C)c2ccccc21	12
60	COc1ccc(-c2nc3nc(SC)nn3cc2C)cc1F	9
61	COc1ccccc1NS(=O)(=O)c1cccc(C(=O)N/N=C/c2c(C)nn(-c3ccccc3)c2N2CCCC2)c1	6
62	CC1=CC(=O)CC2C1(C)CCC(C)C2(C)CCC(C)CC(=O)O (stereo not given)	22
63	COC(=O)[C@H](C)NC(=O)NCc1ccc(S(N)(=O)=O)cc1	19
64	O=c1[nH]n2cc(-n3cc([N+](=O)[O-])cn3)cnc2c1Br	0
65	CC(C)=CCC1=C(OCC(=O)O)C(=O)c2ccccc2C1=O	18
66	Cc1ccccc1C(=O)Oc1cc(N)n(S(=O)(=O)c2ccccc2)n1	14
67	COc1ccccc1Nc1nc(N)nc(CN2CC(C)CC(C)C2)n1 (stereo not given)	16
68	Cc1ccc(C(=O)Nc2ccc(C)c(S(=O)(=O)N(C)C)c2)s1	7
69	CCOC(=O)c1c(C)n2c3c(cc(C)cc13)CCC2	12
70	COc1ccc(CNC(=O)COC(=O)[C@H](Cc2c[nH]c3ccccc23)NC(=O)c2cccs2)cc1	17
71	O=C(NCCC1=CCCCC1)c1ccc([N+](=O)[O-])cc1	11
72	CCNC(=S)N/N=C/c1ccc(-c2ccccc2)o1	7
73	CCOc1ccc(NC(=O)CSc2nc3nc4c(cc3c(=O)n2CC)COC(C)(C)C4)cc1	33
74	Cc1nc(-c2ccc(S(=O)(=O)Nc3cc(S(=O)(=O)N(C)C)ccc3C)s2)cs1	11
75	COc1cc(C2SCC(=O)N2CCN2CCCCC2)ccc1O (stereo not given)	7
76	Cc1cccc(N/N=C2/COC(C)(C)CC2=O)c1	21
77	Cc1ccc(NC(=O)Nc2ccc(F)cc2)cc1Cl	5
78	O=C(CNCc1ccc(F)cc1)Nc1ccccc1-c1ccccc1	10
79	COC(=O)[C@@H]1C[C@@]2(O)[C@@H](O)[C@@H](O)[C@@H](O)C[C@H]2N1Cc1cc(OC)cc(OC)c1	17
80	N#CC1(C#N)C(C(=O)C23CC4CC(CC(C4)C2)C3)C12CCOCC2 (stereo not given)	-5
81	COc1ccc(-c2noc(CN(C)C(=O)Nc3ccccc3)n2)cc1	15
82	CC(=O)Nc1ccc(Nc2nc(Cl)nc(Nc3ccc(NC(C)=O)cc3)n2)cc1	26
83	FC(F)c1nnc2c(Cl)cc(C(F)(F)F)cn12	16
84	O=C(O)/C=C/C(=O)Nc1ccccc1SC(F)(F)F	14
85	O=C(CSc1nnc2c(n1)[nH]c1ccc(F)cc12)N1CCOCC1	10
86	Cc1nc(C(=O)NNC(=O)c2ccc(Cl)cc2)c(C(F)(F)F)o1	22
87	Cc1ccc(C)c(NC(=O)/C(C#N)=C/c2cn(CC(=O)NCc3ccco3)c3ccccc23)c1	6
88	NC(=O)SCC(=O)Nc1ccccc1C(=O)O	20
89	Cc1cc(C)nc(NCCO)n1	1
90	Nc1ccc2nc(SCC(=O)N3CCOCC3)sc2c1	13

Further structures follow.
nr	SMILES	Calb biofilm kill
91	NC1=NC[C@@H](Cc2ccc(O)cc2)N1CCCCC1CCCCC1	12
92	O=C(CC1C(=O)NCCN1C(=O)Nc1ccc(F)cc1F)Nc1cc(Cl)ccc1Cl (stereo not given)	0
93	COC(=O)c1ccc(CN2C(=O)NC3(CCCCC3)C2=O)cc1	14
94	CCCCn1c(=O)[nH]c2nc3cc(NC(C)=O)ccc3nc2c1=O	1
95	Cc1ccc(S(=O)(=O)NCC(=O)N/N=C/c2ccc(Cl)cc2Cl)cc1	7
96	Cc1ccc(N=Cc2cc3c(cc2O)OC(N)=C(C#N)C3c2ccccc2)cc1 (stereo not given)	22
97	Cn1nnc2cc(C(=O)Nc3ccc4ccccc4c3)ccc21	20
98	CC(NC(=O)/C(C#N)=C/c1ccc(Cl)c([N+](=O)[O-])c1)c1ccccc1 (stereo not given)	11
99	O=C(COC(=O)/C=C/c1ccccc1[N+](=O)[O-])NCC1CCCO1 (stereo not given)	-3
100	C/C(=N\NC(=O)C(=O)N/N=C(\C)c1cccc(O)c1)c1cccc(O)c1	17
101	CN1C(C(=O)NCCc2cccs2)CC2Cn3c(nc4ccccc43)C21 (stereo not given)	19
102	CCNC(=O)OCc1cn(-c2ccc(Cl)cc2)nn1	-2
103	Cc1cccc(NCc2ccc(O)c3ncccc23)c1	24
104	Cc1ccc(-c2cn3cccnc3n2)cc1	21
105	O=C(c1cccs1)N(c1ccc(F)cc1)C1C=CS(=O)(=O)C1 (stereo not given)	8
106	O=C(COc1ccc([N+](=O)[O-])cc1)NNC(=O)c1cccs1	-4
107	CC12CCC3(CO)COC(c4ccccc4O1)C2C3 (stereo not given)	8
108	COC(=O)c1cc(C(=O)OC)cc(-n2c(C)cc(C(=O)COC(=O)CNS(=O)(=O)c3ccc(C)cc3)c2C)c1	7
109	CCN(CC)CCCC(C)NC(=O)c1cccc(S(=O)(=O)N2CCc3ccccc32)c1 (stereo not given)	8
110	COC(=O)c1ccc(CSC2=NCCS2)cc1	11
111	c1ccc(-c2cn3c(n2)SCC3)cc1	10
112	COC(=O)C(NC(=O)COc1ccccc1)(Nc1nc2c(s1)CCCC2)C(F)(F)F (stereo not given)	19
113	CS(=O)(=O)N1CCCC(C(=O)Nc2ccc(Br)cc2F)C1 (stereo not given)	15
114	Cc1c(N=Cc2ccc(O)c(Br)c2)cccc1[N+](=O)[O-]	11
115	COc1ccc(NC(=S)c2ccc(N(C)C)cc2)cc1	17
116	O=C1S/C(=C\c2ccc(O)c([N+](=O)[O-])c2)C(=O)N1Cc1cccc([N+](=O)[O-])c1	30
117	O=C(Nc1ccc2c(c1)OCCO2)c1ccc2ccccc2n1	6
118	COc1ccc2nc(SCC(=O)Nc3ccccc3)[nH]c2c1	9
119	Cc1ccccc1-n1c(SCC(=O)Nc2ccccc2)nc2nc3c(cc2c1=O)CCCC3	18
120	COc1ccc(OC)c(-n2c(=S)[nH]c3c(sc(=S)n3-c3ccccc3C)c2=O)c1	18
121	Cc1cc(C(F)F)nn1CC(=O)Nc1cc([N+](=O)[O-])ccc1F	13
122	Cc1onc(-c2ccccc2)c1C(=O)N/N=C/c1ccc([N+](=O)[O-])s1	17
123	CN1CCN(/N=C/c2ccc(-c3ccc([N+](=O)[O-])cc3)o2)CC1	19
